Ecoli rRNA inh: reduced GFP signal of wild-type E. coli, primary screen, bacterial rRNA inhibitor project, GFP/RFP fluorescence, OD600, single point | GFP signal change (wild-type ribosome), % (no concentration beside the values) | E. coli WT GFP vs humanized-ribosome RFP mutants, 24 h; stronger effect = lower value; DMSO median 0, no signal -100 | hit rate 1.6% among 350,000;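 active = significant combined selectivity score with lowered wild-type GFP, culture density cut under 30%, mutant RFP and density less affected; inactive = any of these conditions unmet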; note: one replicate is shown; some compounds called inactive have numbers as strong as hits
Ecoli rRNA inh OD600: also measured in Ecoli rRNA inh; calls as there; OD600 change, %; measured here: OD600 growth;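 optical density of the mix in the first replicate; 0 = DMSO median and -100 = no signal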
Ecoli rRNA inh RFP: further read-out of Ecoli rRNA inh, marked with its call; RFP signal change, %; measured here: RFP humanized mutant strains;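 first replicate; 0 = DMSO median and -100 = no signal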
* hit, by the source's call; & = joins results of further samples. A portion of the library; count on the stated rates, not on these rows.

SMILES | Ecoli rRNA inh | Ecoli rRNA inh OD600 | Ecoli rRNA inh RFP
CC(=O)Nc1ccc(-c2ccnc3c2CC(C(=O)NC(C)C)O3)cc1 (stereo unspecified) | 6.3 | 9.9 | 0.3
COCC(=O)N1CC[C@@H]2[C@H]1c1cc(C#Cc3cccc(F)c3)ccc1N[C@@H]2CO | -13.3 | -0.5 | 10.3
C[C@H](CO)N1C[C@H](C)[C@H](CN(C)C(=O)Nc2ccc(F)cc2)Oc2ccc(N(C)C)cc2C1=O | -3.4 | 0.6 | 0.5
C[C@H](CO)N1C[C@H](C)[C@H](CN(C)C(=O)c2ccncc2)Oc2ncc(-c3ccc(C(=O)N(C)C)cc3)cc2C1=O | 1.7 | 3.0 | -5.8
COc1ccc(NC(=O)N2C[C@@H](O)COC[C@H]3O[C@@H](CC(=O)N4CCOCC4)CC[C@@H]32)cc1 | 1.6 | 4.9 | -5.7
COc1ccc(S(=O)(=O)Nc2ccc3c(c2)C(=O)N([C@H](C)CO)C[C@H](C)[C@H](CN(C)C(=O)Nc2ccc(F)cc2)O3)cc1 | 0.4 | -1.5 | -0.5
COc1ccccc1NC(=O)N1CC(=O)N2[C@H](C1)[C@@H](c1ccc(-c3ccc(F)cc3)cc1)[C@@H]2CO | -12.4 | -29.7 | 16.5
COc1ccc(NC(=O)Nc2ccc3c(c2)C(=O)N([C@H](C)CO)C[C@@H](C)[C@H](CN(C)Cc2ccncc2)OCCCC[C@H](C)O3)cc1 | -0.6 | -4.0 | 0.3
C[C@H](O)C#Cc1ccc2c(c1)O[C@@H](CN(C)C(=O)C1CCC1)[C@H](C)CN([C@H](C)CO)S2(=O)=O | -0.6 | -3.7 | -0.7
C[C@@H]1CN([C@@H](C)CO)C(=O)c2cc(-c3ccncc3)cnc2O[C@H]1CN(C)Cc1ccc(F)cc1 | 5.5 | 6.1 | -1.7
C[C@@H]1CN([C@H](C)CO)C(=O)c2cccc(NC(=O)Nc3ccc4c(c3)OCO4)c2O[C@@H]1CN(C)C(=O)Nc1ccc(F)cc1 | -1.2 | 3.3 | 0.6
O=C1C(=Cc2ccc(F)cc2)Cc2ccccc21 | 1.9 | 14.8 | 1.4
C[C@H](CO)N1C[C@H](C)[C@H](CN(C)C)Oc2c(NS(=O)(=O)c3ccc(F)cc3)cccc2C1=O | 2.1 | 10.3 | -0.8
CC(C)CC#Cc1ccc2c(c1)O[C@@H](CN(C)C(=O)c1cccnc1)[C@@H](C)CN([C@@H](C)CO)S2(=O)=O | 1.7 | -11.1 | 1.5
CCCC(=O)Nc1ccc2c(c1)C(=O)N(C)C[C@@H](OC)[C@H](C)CN(CCC(F)(F)F)[C@@H](C)CO2 | -4.3 | -1.4 | -1.1
CN(C)CC(=O)N[C@H]1CC[C@H](CCNC(=O)Nc2ccc(C(F)(F)F)cc2)O[C@H]1CO | -60.1 | -80.0 | -18.2
CCCC(=O)Nc1ccc2c(c1)C(=O)N(C)[C@H]1CC[C@H](CC(=O)NCCOC)O[C@H]1CO2 | -0.3 | 1.7 | -2.0
O=S(=O)(Nc1ccc(NS(=O)(=O)c2ccccc2)cc1)c1ccccc1 | -22.3 | -45.2 | -9.0
COc1ccc(-c2cnc3c(c2)C(=O)N([C@@H](C)CO)C[C@@H](C)[C@H](CN(C)Cc2ccc(C(=O)O)cc2)O3)cc1 | -3.8 | -2.7 | -4.3
CO[C@@H]1CN(C)C(=O)c2ccc(NC(=O)NC(C)C)cc2OC[C@@H](C)N(CCC(F)(F)F)C[C@@H]1C | -4.6 | -8.4 | 1.6
CCOC(=O)C1(C)CCCN(C(=O)c2cccc(OC(F)(F)F)c2)C1 (stereo unspecified) | 2.7 | 7.9 | -1.0
C[C@@H]1CN([C@H](C)CO)S(=O)(=O)c2ccc(C#CC3(O)CCCC3)cc2O[C@H]1CN(C)C(=O)Cc1ccncc1 | 1.5 | -1.6 | 0.6
Cc1ccsc1C(=O)N1CCC1(C)C(=O)NS(=O)(=O)c1ccc(C#N)cc1 (stereo unspecified) | 7.1 | 18.1 | -1.9
CN(C)CC(=O)N[C@H]1CC[C@@H](CCNC(=O)C2CCCC2)O[C@H]1CO | -0.3 | 9.0 | 0.6
O=C(CC(F)(F)F)N1C[C@H]2[C@@H](c3ccccc31)[C@H](CO)N2CC1CCOCC1 | -1.6 | 10.8 | -1.1
C[C@@H]1CCCCO[C@@H](CN(C)C(=O)Nc2ccc3c(c2)OCO3)[C@H](C)CN([C@@H](C)CO)C(=O)c2cc(N(C)C)ccc2O1 | -4.5 | 1.0 | -3.8
C[C@@H](O)C#Cc1ccc([C@@H]2[C@@H](CO)N3CCCCN(C(=O)c4ccc(F)cc4)C[C@@H]23)cc1 | 0.7 | 8.6 | -0.4
Cc1ccc(S(=O)(=O)N2CC[C@@H]3[C@@H](CO)Nc4ccc(-c5ccc(C#N)cc5)cc4[C@@H]32)cc1 | -7.4 | -9.0 | -1.2
COCC(=O)N(C)C[C@@H]1Oc2cc(C#C[C@@H](C)O)ccc2S(=O)(=O)N([C@H](C)CO)C[C@H]1C | 4.0 | 6.2 | -0.2
CCN1[C@@H]2Cn3c(ccc(C4=CCCC4)c3=O)[C@H]1[C@@H](C(=O)NCc1ccccn1)[C@@H]2CO | 2.2 | 4.0 | -0.1
O=C(C[C@@H]1CC[C@@H](NC(=O)c2cccnc2)[C@H](CO)O1)NCc1ccncn1 | 1.0 | 3.7 | -0.9
CCCCCCN1C[C@@H](O)[C@H](n2cc(C3CC3)nn2)C[C@@H]1c1ccc(Cl)cc1 | 5.0 | 11.8 | -1.2
CC(C)NC(=O)Nc1ccc2c(c1)C(=O)N([C@H](C)CO)C[C@H](C)[C@H](CN(C)C(=O)Nc1ccc3c(c1)OCO3)OCCCC[C@@H](C)O2 | 1.8 | -1.5 | -3.6
C[C@H](NC(=O)C[C@@H]1C=C[C@H](NC(=O)C2CC2)[C@H](CO)O1)c1ccccc1 | -0.9 | -3.5 | 1.0
CC(C)C[C@@H](CN1CCC[C@H]1CN1C(=O)C(=O)NC[C@@H]1Cc1ccc(O)cc1)N1C[C@H](Cc2ccc(O)cc2)N(CCc2ccccc2)C(=O)C1=O | -14.5 | -11.2 | 2.1
CN1C(=O)c2cc(NC(=O)c3ccc(F)cc3)ccc2OC[C@H]2O[C@@H](CC(=O)O)CC[C@H]21 | 3.9 | 12.6 | 1.3
COc1ccccc1C#Cc1ccc([C@@H]2[C@H]3CN(C(=O)C4CCC4)CCCCN3[C@H]2CO)cc1 | -40.8 | -60.4 | -0.7
Cc1ccc(S(=O)(=O)N(C)C[C@H]2Oc3ccc(NC(=O)Nc4cccc5ccccc45)cc3CC(=O)N([C@@H](C)CO)C[C@H]2C)cc1 | 2.6 | 7.6 | -2.8
Cc1ccccc1-c1ccc([C@H]2[C@H](CO)N3CCCCN(S(=O)(=O)c4ccc(F)cc4)C[C@@H]23)cc1 | -51.0 | -47.4 | -2.3
O=C(Nc1ccc(F)cc1)N1CC(=O)N2[C@H](CO)[C@@H](c3ccc(C4=CCCC4)cc3)[C@H]2C1 | -0.8 | -4.1 | 2.2
COc1ccc(CC(=O)Nc2ccc(S(=O)(=O)Nc3cc(C)nc(C)n3)cc2)cc1OC | 10.0 | 9.8 | -2.1
CN1c2ccc(-c3ccccc3F)cc2[C@@H]2[C@@H](CCN2C(=O)CN2CCOCC2)[C@@H]1CO | -1.9 | -8.7 | 3.9
O=C(CC1CC1)Nc1ccc2c(c1)[C@H]1C[C@H](CC(=O)NC3CCCC3)O[C@H](CO)[C@H]1O2 | -1.5 | 1.4 | -0.2
C[C@H](CO)N1C[C@H](C)[C@@H](CN(C)Cc2ccccc2)Oc2ccc(NC(=O)Nc3ccc(F)cc3)cc2C1=O | -2.8 | -7.9 | 0.2
CC(C)(C)n1nc(C2CC2)c(Br)c1NC(=O)c1ccccc1Cl | 7.4 | 13.4 | 1.0
CCCNC(=O)N(C)C[C@H]1Oc2ncc(-c3ccc(OC)cc3)cc2C(=O)N([C@H](C)CO)C[C@@H]1C | 2.4 | 11.6 | -1.3
CCCNC(=O)N(C)C[C@@H]1Oc2cc(C#Cc3cccc(F)c3)ccc2S(=O)(=O)N([C@H](C)CO)C[C@H]1C | -0.8 | -38.0 | 31.4
Cc1ccc(S(=O)(=O)Nc2ccc3c(c2)C(=O)N([C@H](C)CO)C[C@H](C)[C@H](CN(C)C(=O)NC(C)C)O3)cc1 | 5.7 | 8.0 | -1.6
COc1ccc(C[C@H]2CCn3cc(nn3)COC[C@H](CC(C)C)NC2=O)cc1 | -2.6 | 5.9 | 1.2
Cc1ccc(OC(=O)N(C)C[C@H]2OCc3cn(nn3)CCCC(=O)N([C@@H](C)CO)C[C@@H]2C)cc1 | 16.1&-0.9 | 16.8&5.5 | 0.0&-3.7
CC(C)NC(=O)Nc1ccc2c(c1)CC(=O)N([C@@H](C)CO)C[C@H](C)[C@@H](CN(C)C(=O)Nc1ccc(C(F)(F)F)cc1)O2 | 4.2 | 1.5 | -0.9
COc1ccccc1-c1ccc2n(c1=O)C[C@H]1[C@H](CO)[C@@H](C(=O)O)N(C(=O)c3cccnc3)[C@@H]21 | 2.9 | -2.7 | 0.9
COc1cccc(S(=O)(=O)N(C)C[C@@H]2Oc3ncc(C#CCC(C)C)cc3C(=O)N([C@@H](C)CO)C[C@H]2C)c1 | 0.6 | -5.0 | 0.1
COc1ccc(NC(=O)Nc2ccc3c(c2)C(=O)N([C@@H](C)CO)C[C@@H](C)[C@@H](CN(C)Cc2ccc(C(F)(F)F)cc2)OCCCC[C@H](C)O3)cc1 | 3.1 | 15.0 | -3.7
CNC[C@H]1OCCCC[C@H](C)Oc2ccc(NS(=O)(=O)c3c(C)noc3C)cc2C(=O)N([C@@H](C)CO)C[C@@H]1C | 4.7 | 2.2 | 0.0
COc1cccc(C(=O)N2CCC[C@H]2C(=O)N2CCC[C@H]2C(=O)N(C)Cc2ccccc2)c1 | 1.7 | 17.1 | -4.4
CCS(=O)(=O)N1Cc2cc(C(=O)N(C)C)nc(-c3cccc(-c4ccc(F)cc4)c3)c2[C@@H]1CCO | 11.3 | 1.1 | 1.1
CC(C)C#Cc1ccc([C@H]2[C@H]3CN(C(=O)C4CCCCC4)CC(=O)N3[C@H]2CO)cc1 | 8.1 | 2.5 | -0.5
C[C@H]1CN([C@@H](C)CO)C(=O)c2cc(Br)cnc2O[C@@H]1CN(C)Cc1cccc(C(=O)O)c1 | 4.3 | 8.0 | -3.5
C[C@@H]1CN([C@@H](C)CO)C(=O)c2cc(C#CCN(C)C)cnc2O[C@H]1CN(C)Cc1ccc2c(c1)OCO2 | 3.2&0.9 | -1.2&11.5 | 3.3&0.3

4 compounds already listed, ordered by their value in Ecoli rRNA inh RFP, falling:
SMILES | Ecoli rRNA inh | Ecoli rRNA inh OD600 | Ecoli rRNA inh RFP
COCC(=O)N1CC[C@@H]2[C@H]1c1cc(C#Cc3cccc(F)c3)ccc1N[C@@H]2CO | -13.3 | -0.5 | 10.3
COc1ccc(C[C@H]2CCn3cc(nn3)COC[C@H](CC(C)C)NC2=O)cc1 | -2.6 | 5.9 | 1.2
C[C@@H]1CN([C@H](C)CO)C(=O)c2cccc(NC(=O)Nc3ccc4c(c3)OCO4)c2O[C@@H]1CN(C)C(=O)Nc1ccc(F)cc1 | -1.2 | 3.3 | 0.6
COc1ccc(NC(=O)Nc2ccc3c(c2)C(=O)N([C@@H](C)CO)C[C@@H](C)[C@@H](CN(C)Cc2ccc(C(F)(F)F)cc2)OCCCC[C@H](C)O3)cc1 | 3.1 | 15.0 | -3.7

Remaining list, next part:
SMILES | Ecoli rRNA inh | Ecoli rRNA inh OD600 | Ecoli rRNA inh RFP
O=C(Nc1ccccc1)N1CCCCN2[C@H](CO)[C@@H](c3ccc(Br)cc3)[C@H]2C1 | -0.6 | -3.6 | 1.4
COc1ccccc1-c1cnc2c(c1)C(=O)N([C@H](C)CO)C[C@@H](C)[C@@H](CN(C)Cc1cccnc1)O2 | 1.2 | 1.1 | -7.4
CC(C)CNC(=O)c1cccc2c(-c3ccc(F)c(F)c3)coc12 | -5.1 | 1.4 | -1.7
COCC(=O)Nc1ccc2c(c1)C(=O)N(C)[C@@H]1CC[C@@H](CC(=O)Nc3cn(C)nc3C)O[C@@H]1CO2 | 5.0 | 11.2 | -0.8
COc1ccc(S(=O)(=O)Nc2ccc3c(c2)C(=O)N([C@@H](C)CO)C[C@@H](C)[C@@H](CN(C)S(=O)(=O)c2ccc(C)cc2)OCCCC[C@H](C)O3)cc1 | -1.0 | -1.2 | -1.0
COc1ccc(S(=O)(=O)N(C)C[C@H]2Oc3ccc(NC(=O)c4ccncc4)cc3CC(=O)N([C@@H](C)CO)C[C@H]2C)cc1 | -2.5 | -0.3 | 0.7
CCNC(=O)C1(C)CCCN1C(=O)c1ccc(-c2ccccc2)cc1 (stereo unspecified) | 2.8 | -8.0 | -1.6
CC(C)NC(=O)N(C)C[C@H]1Oc2ccc(NC(=O)c3ccncc3)cc2CC(=O)N([C@@H](C)CO)C[C@H]1C | 7.2 | 3.7 | -1.2
C#CCN(Cc1ccco1)C(=O)c1nnc2c3ccccc3n(S(=O)(=O)c3ccc(C)cc3)c2n1 | 1.2 | -1.1 | 5.1

One compound at a time (already shown):
COc1ccccc1-c1cnc2c(c1)C(=O)N([C@H](C)CO)C[C@@H](C)[C@@H](CN(C)Cc1cccnc1)O2 in the list: Ecoli rRNA inh = 1.2; Ecoli rRNA inh OD600 = 1.1; Ecoli rRNA inh RFP = -7.4
COCC(=O)Nc1ccc2c(c1)C(=O)N(C)[C@@H]1CC[C@@H](CC(=O)Nc3cn(C)nc3C)O[C@@H]1CO2 in the list: Ecoli rRNA inh = 5.0; Ecoli rRNA inh OD600 = 11.2; Ecoli rRNA inh RFP = -0.8
CC(C)NC(=O)N(C)C[C@H]1Oc2ccc(NC(=O)c3ccncc3)cc2CC(=O)N([C@@H](C)CO)C[C@H]1C in the list: Ecoli rRNA inh = 7.2; Ecoli rRNA inh OD600 = 3.7; Ecoli rRNA inh RFP = -1.2

High-throughput results: PubChem BioAssay, Broad Institute
